Screens (PubChem)
S aureus helic = S. aureus DNA helicase inhibition | purified S. aureus helicase, fluorescence unwinding assay; about half of the hits fall short of the stated cut | inhibition, %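 (tested at about 80 µM)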 | 0.05% of 120,000 active | AID 485395;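 active means both duplicates at 50% or more, or one of them with a favoured structure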;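 further: 0% = mean of negative control wells and 100% = mean of positive control wells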
MgrA DNA FP = modulators of Staphylococcus aureus MgrA DNA binding | fluorescence polarization | inhibition, %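 (about 10 µg/mL by stock and volumes)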 | 0.13% of 84,000 active;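 active means above 50% in either of two replicates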;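 further: 0% = protein plus DNA without compound and 100% = DNA alone without protein; higher means less MgrA bound to DNA so lower polarization; one replicate is shown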
* marks the source's active call; other numbers are inactive results; nt = not tested or not shown.

cpd | Compound | S aureus helic | MgrA DNA FP
1 | O=C(c1cccs1)N1CCCC(c2nc3c(nnn3Cc3ccc(F)cc3)c(=O)[nH]2)C1 (stereo not drawn) | -10.0 | 1.1
2 | Cc1c(Cl)cc([N+](=O)[O-])cc1Cl | nt | -0.2
3 | Cc1sc(NC(=O)c2ccco2)c(C(c2cccnc2)N2CCCC2)c1C (stereo not drawn) | 16.0 | -0.3
4 | CCn1cc(C(=O)NC2CCCC(C)C2C)c2cc(OC)c(OC)cc2c1=O (stereo not drawn) | 8.0 | 1.3
5 | COc1cc(/C=C2\C(=O)NC(=S)N(c3ccc(C(C)C)cc3)C2=O)ccc1OCC(=O)O | nt | 16.1
6 | CCOc1ccc(Oc2ccc(N)cc2)cc1 | -19.0 | -3.1
7 | CCOC(=O)c1ccc(NC(=O)C2CCN(c3nnc(-n4cccc4)s3)CC2)cc1 | 14.0 | nt
8 | Cc1ccc(C(=O)c2cc(C)sc2NC(=O)CN2CCN(C(=O)c3ccco3)CC2)cc1 | -10.0 | 2.0
9 | Cc1cc(=O)oc2ccc(OC(=O)CC(C)C)cc12 | 9.0 | 1.7
10 | Cc1ccc(C(=O)CC2OC(=O)c3ccccc32)o1 (stereo not drawn) | 6.0 | nt
11 | COc1ccc(OC)c(NC(=O)c2oc3ccccc3c2NC(=O)CC(C)(C)C)c1 | 9.0 | nt
12 | CN(C=O)CP(=O)(O)CN1CCOCC1 | -20.0 | nt
13 | CC(=O)n1cc(-c2ccncc2)c2ccccc21 | 10.0 | -0.1
14 | CCn1c(SCc2ccccc2OC)nc2cc(S(N)(=O)=O)ccc21 | -2.0 | nt
15 | CCC(=O)N1CCc2cc(S(=O)(=O)Nc3ccccc3OC)ccc21 | 15.0 | nt
16 | Cc1ccc(NC(=S)NCCN(C2CCCCC2)C2CCCC2)cc1 | 9.0 | 0.0
17 | O=C(NCc1ccccc1)NC1(C(=O)NCC2CCCO2)CCCCC1 (stereo not drawn) | 5.0 | -1.9
18 | COc1ccc(Oc2nccnc2C#N)cc1 | -16.0 | nt
19 | Clc1cccc(CNCc2cccs2)c1 | -18.0 | 0.9
20 | CC(C)(CO)NC(=O)c1cc(-c2ccc(Cl)cc2Cl)on1 | -4.0 | 0.2
21 | S=c1[nH]nc(NNc2ccccc2)n1Nc1ccccc1 | 17.0 | -11.9
22 | O=S1(=O)CCC(N2COc3c(cc(Cl)c4cccnc34)C2)C1 (stereo not drawn) | -1.0 | nt
23 | Cc1cccc2c1-c1sc(C(=O)N3CCN(c4ccc(Cl)cc4)CC3)cc1CO2 | 14.0 | 0.0
24 | CCOC(=O)c1ccc(NC(=S)N2CCN3C(=O)c4ccccc4C32c2ccccc2)cc1 (stereo not drawn) | nt | -0.2
25 | Clc1ccc2ncnc(NCc3ccc4c(c3)OCO4)c2c1 | nt | -0.1
26 | CCOC(=O)C1Sc2nnc(C)n2NC1c1ccc2c(c1)OCO2 (stereo not drawn) | 11.0 | nt
27 | CN(Cc1ccccc1)C1CCN(CCc2ccccc2)CC1 | -6.0 | 0.2
28 | N/C(CCN1CCOCC1)=N/O | -13.0 | nt
29 | COc1ccc(Cl)cc1NC(=O)Nc1ccccc1 | nt | -1.2
30 | COc1ccc(Cl)cc1S(=O)(=O)N1CCC(c2nnc(-c3ccc(C)cc3)o2)CC1 | 3.0 | 11.4

Record cards, as listed above. Values in the order: S aureus helic | MgrA DNA FP
Shown for `Clc1ccc2ncnc(NCc3ccc4c(c3)OCO4)c2c1` → nt | -0.1
Shown for `Cc1ccc(NC(=S)NCCN(C2CCCCC2)C2CCCC2)cc1` → 9.0 | 0.0
Shown for `S=c1[nH]nc(NNc2ccccc2)n1Nc1ccccc1` → 17.0 | -11.9
Shown for `CN(Cc1ccccc1)C1CCN(CCc2ccccc2)CC1` → -6.0 | 0.2
Shown for `Cc1cccc2c1-c1sc(C(=O)N3CCN(c4ccc(Cl)cc4)CC3)cc1CO2` → 14.0 | 0.0

The results go on.
cpd | Compound | S aureus helic | MgrA DNA FP
31 | CCc1ccc(C2Nc3ccccc3NC3=C2C(=O)CC(C)(C)C3)cc1 (stereo not drawn) | 20.0 | 3.7
32 | Cc1ccc2nc(Cl)c(/C=N/NC(=O)c3cccnc3)c(=O)n2c1 | -24.0 | nt
33 | O=C(O)CC(Sc1ncnc2sc3c(c12)CCCC3)C(=O)O (stereo not drawn) | -2.0 | nt
34 | Cc1cc(SCc2c(Cl)cccc2Cl)c(Cl)cc1Cl | nt | -0.5
35 | Cc1ccc(Cn2c(C)c3cnn(CC(=O)NCC4CCCO4)c(=O)c3c2C)cc1 (stereo not drawn) | -4.0 | nt
36 | CCCCc1nc2sc3c(Cl)ncnc3c2c2c1COC(C)(C)C2 | 5.0 | 1.5
37 | O=C(COC(=O)c1ccco1)Nc1ccc(Br)cc1 | -9.0 | nt
38 | Cc1[nH]n(-c2ccccc2)c(=O)c1CC(=O)O | -3.0 | -3.0
39 | Cn1c(Cc2ccccc2)nc2ccccc21 | -8.0 | nt
40 | COc1ccc(C(c2c(C)[nH]c3ccccc23)N2CCOCC2)cc1 (stereo not drawn) | 15.0 | 8.7
41 | CCc1c(C)sc(NC(=O)c2cc(CC(C)C)on2)c1C#N | 0.0 | nt
42 | Cc1ccc(SC(=O)c2ccno2)cc1 | nt | 7.5
43 | CN1CCN(CCCNC(=O)Cn2ncc3c4ccccc4n(Cc4ccccc4F)c3c2=O)CC1 | 32.0 | nt
44 | Cc1cc(C)nc(NS(=O)(=O)c2ccc(NC(=O)CN3C(=O)C4CC=CCC4C3=O)cc2)n1 (stereo not drawn) | 37.0 | nt
45 | Clc1cccc(Cl)c1CN(Cc1ccccc1)c1ncnc2nc[nH]c12 | -7.0 | -5.3
46 | COc1ccc(N(C)C(=O)Cc2c(C(=O)O)[nH]c3ccccc23)cc1 | 8.0 | -1.4
47 | Cc1ccc(C(=O)NCS(=O)(=O)c2ccccc2)cc1 | 4.0 | nt
48 | O=S(=O)(c1cnc[nH]1)N1CCc2ccccc21 | -274.0 | nt
49 | CCc1ccc(NS(=O)(=O)c2cc(Br)cnc2N)cc1 | -22.0 | nt
50 | Cc1cc(=O)oc2cc(NC(=O)CC3(CC(=O)O)CCCC3)ccc12 | nt | -2.3
51 | Cc1ccc(-n2nc(C)c3c(C(=O)NC4CCCC4)cc(C)nc32)cc1 | -1.0 | nt
52 | Cc1cccc(NC(=O)c2cc3c(=O)n4ccccc4nc3s2)c1 | 16.0 | 2.6
53 | Cc1cc2c(N=NC(=O)C3CC34CCC4)c(O)[nH]c2cc1Br (stereo not drawn) | 18.0 | -0.8
54 | O=S(=O)(Cc1ccc(C(F)(F)F)cc1)c1c[nH]c2ccccc12 | 13.0 | nt
55 | Cc1ccc(S(=O)(=O)N2CC(=O)CCc3ccccc32)cc1 | 4.0 | -0.6
56 | O=S(=O)(c1ccccc1)N1CC=C(c2ccccc2)CC1 | nt | -2.6
57 | CNC(=O)Cc1sc2ccc(Cl)cc2c1C | nt | -0.6
58 | O=C1CC(c2ccc3c(c2)OCO3)c2c(c3ccccc3n(-c3ccccc3)c2=O)O1 (stereo not drawn) | -17.0 | 5.3
59 | Cc1sc(NC(=O)CN2CCc3ccccc32)c(C#N)c1C | nt | 0.0
60 | COc1ccc(N=C2SC(C(N)=O)CC(=O)N2Cc2ccccc2)cc1 (stereo not drawn) | 16.0 | 0.8

Next records.
entry	smiles	S aureus helic	MgrA DNA FP
61	NS(=O)(=O)c1ccc(C(=O)Nc2cccc(-c3ccc4nncn4n3)c2)cc1	15.0	nt
62	CCN(Cc1ccc2c(c1)OCCO2)C(=O)c1ccccc1C(=O)N(C)C1CCCCC1	17.0	nt
63	Cc1nc2sc(C(c3ccc(Cl)c(Cl)c3)N3CCCC3)c(O)n2n1 (stereo not drawn)	5.0	nt
64	Cc1cc(C)cc(N=C2NC(=O)/C(=C/c3ccc([N+](=O)[O-])c(O)c3)S2)c1	nt	-0.9
65	O=c1cc[nH]c2ccc(OC(F)(F)F)cc12	nt	-1.0
66	COc1ccc(N(C)C(=O)C2COc3ccccc3O2)cc1 (stereo not drawn)	10.0	-1.4
67	O=C(Nc1ccc(C(F)(F)F)cc1)C1=NCCN1	-6.0	-0.1
68	CC(C)(C)C(=O)N1c2ccccc2CCc2ccccc21	2.0	-0.4
69	COc1ccc(C(=O)Nn2cnnc2)cc1	nt	-1.9
70	Nc1ccccc1-c1nnn(CC(=O)NC2CCCC2)n1	16.0	nt
71	CC(=O)N1CCc2ccccc2C1CN=CC1=C(O)CC(c2ccco2)CC1=O (stereo not drawn)	21.0	0.2
72	C/C(=N\OCC(=O)Nn1c(=O)[nH]c2ccccc2c1=O)c1ccccc1	-19.0	nt
73	COc1ccc(CCNC(=O)Nc2ccccc2C)cc1OC	7.0	3.6
74	CC(=O)Nc1ccc(NC(=O)C(C)OC(=O)c2c(F)cccc2F)cc1 (stereo not drawn)	5.0	0.3
75	CN(C)S(=O)(=O)Cc1ccccc1Cl	10.0	1.2
76	N#Cc1c(Cl)cccc1Oc1ccc(S(=O)(=O)N2CCC(O)CC2)cc1	nt	-0.7
77	NC(=O)CCNCc1ccccc1	6.0	1.9
78	Cc1cc(C(=O)COC(=O)c2ccc(NC(=O)CC#N)cc2)c(C)n1-c1ccc2c(c1)OCCO2	-8.0	nt
79	Nc1ccccc1Sc1cc(Sc2ccccc2N)c([N+](=O)[O-])cc1Cl	nt	-1.0
80	OC(CNCc1cccs1)c1ccccc1 (stereo not drawn)	nt	-0.9
81	O=C(N/C=C/n1cnc2cc(C(F)(F)F)ccc21)c1ccco1	0.0	-0.2
82	Cc1cc(-c2ccc(C)c(S(=O)(=O)N(C)C3CCCCC3)c2)on1	-13.0	nt
83	O=C(NCc1ccco1)c1cc(F)cc2c1OCOC2	nt	0.6
84	Oc1c(Cl)cc(Cl)cc1C=Nc1ccc2n[nH]nc2c1	nt	0.2
85	COc1cc(CN(Cc2ccccc2)C(=S)Nc2c(C)cccc2C)cc(OC)c1OC	nt	0.1
86	Cc1ccc(C(=O)CSc2nnc3[nH]c(=O)c(C)nn23)cc1	-11.0	nt
87	Cn1c(=O)c2c(nc(N3CCNCC3)n2C)n(C)c1=O	20.0	nt
88	O=C(OCc1cc(=O)n2cc(Br)ccc2n1)C1COc2ccccc2O1 (stereo not drawn)	-4.0	nt
89	CCC(=O)NCCSc1ncc(-c2ccccc2)[nH]1	-17.0	nt
90	CCCSc1ncccc1C(N)=O	nt	-0.1
91	Cc1ccc(S(=O)(=O)NNC(=O)CCc2nc(-c3ccc(Cl)cc3)no2)cc1	nt	1.9
92	CCN(Cc1nc2cc(OC)c(OC)cc2c(=O)[nH]1)C(=O)c1ccc(S(=O)(=O)N(C)C)cc1	-11.0	nt
93	Cc1ccccc1CS(=O)(=O)c1cnc2ccccc2n1	nt	0.8
94	COC(=O)c1ccc(COc2ccc(F)cc2)cc1	5.0	0.1
95	CCCn1c(SCC(=O)N2CCC(C)Sc3ccccc32)n[nH]c1=O (stereo not drawn)	-6.0	nt
96	S=c1nc(-c2cccs2)[nH]n1CN1CCCC1	-10.0	nt
97	CC(C)(C)N1CC(c2nc3ccccc3[nH]2)CC1=O (stereo not drawn)	14.0	-1.6
98	Cc1ccc(NC(=O)CC2Oc3ccccc3NC2=O)cc1 (stereo not drawn)	11.0	0.2
99	Cn1c(=O)c2c(nc(NN=C3CCCCC3)n2C)n(C)c1=O	4.0	5.9
100	O=C(Nc1cccc(C(F)(F)F)c1)c1ccccn1	-12.0	0.6
101	COC(=O)c1sccc1NS(C)(=O)=O	nt	0.2
102	Cc1cc(C(=O)N2CCN(C(c3ccccc3)c3ccccc3)CC2)nn1C	nt	0.9
103	O=S(=O)(Nc1ccc(O)cc1)c1ccc2oc3ccc(S(=O)(=O)Nc4ccc(O)cc4)cc3c2c1	20.0	nt
104	O=C(COC(=O)c1cc2ccccc2cc1O)c1ccc(OCc2ccccc2)cc1	2.0	0.0
105	Cc1c(/C=C2/N=C(c3ccccc3)OC2=O)cc(C#N)n1C	8.0	nt
106	O=C1CC(c2ccc(Cl)cc2)n2ncnc2N1 (stereo not drawn)	-2.0	0.6
107	Cc1ccc(N(C)S(=O)(=O)c2cc3[nH]c(=O)c(=O)[nH]c3cc2C)cc1	28.0	nt
108	CCOC(=O)C1=C(C)N=c2s/c(=C\c3ccccc3OC(C)=O)c(=O)n2C1c1ccc(OC(C)=O)cc1 (stereo not drawn)	nt	-2.1
109	CCc1cc2c(=O)c(-c3ccc4ccccc4n3)coc2cc1OC	-20.0	nt
110	c1ccc(CN2CCN(CCN3CCCCC3)CC2)cc1	1.0	-4.6
111	COc1ccc(CCNC(=O)CCCn2ncn3c(cc4occc43)c2=O)c(OC)c1	5.0	nt
112	CC1CCCCN1C(=O)c1cc2ccccc2oc1=O (stereo not drawn)	4.0	nt
113	O=C(NC1(O)C(=O)c2ccccc2C1=O)c1ccc(C(F)(F)F)cc1	-2.0	nt
114	COc1cc(NC(=O)COCc2cc(-c3ccc(F)cc3)on2)c(OC)cc1Cl	4.0	nt
115	Cc1ccc(NC(=O)C2Cc3ccccc3C(=O)O2)cc1C (stereo not drawn)	-24.0	nt
116	CC1CCCC(C)N1C(=S)NCCCN1CCOCC1 (stereo not drawn)	nt	-1.6
117	O=C(Nc1nccs1)C1CC2CCCC(C1)C2=O (stereo not drawn)	-28.0	3.4
118	CC(C)Oc1ccc(C(=O)NC2CCS(=O)(=O)C2)cc1 (stereo not drawn)	5.0	nt
119	CC1=C(C)CC(C(=O)NCc2ccccn2)C(C(=O)O)C1 (stereo not drawn)	nt	0.3
120	CC(Nc1ccc(-n2cnnn2)cc1)C(=O)N1CCN(Cc2ccccc2)CC1 (stereo not drawn)	14.0	nt
121	CN(C)C(=O)COC(=O)C1c2ccccc2Oc2ccccc21	8.0	nt
122	C=CCn1c(SCc2nnc(SCC(=O)c3ccc(Cl)cc3)o2)nnc1-c1ccccc1	nt	-0.9
123	CCOC(=O)NC(=O)c1cn(Cc2cccs2)c(=O)[nH]c1=O	nt	0.2

A portion of the library; count on the stated rates, not on these rows.
